RecA splice inh: Mtb RecA intein splicing inhibition | P9WHJ3 | cell-free RecA intein splicing, fluorescence | inhibition, %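 (about 9 µM by stock and volumes)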 | 290,000 tested, 0.75% active | AID 2221; in the data active = inhibition above about 30%; inconclusive = no clear call, values can overlap the other calls;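 also: 0% = vehicle wells and 100% = reference inhibitor control wells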
Target sequence (P9WHJ3 whole entry, looked up, canonical isoform): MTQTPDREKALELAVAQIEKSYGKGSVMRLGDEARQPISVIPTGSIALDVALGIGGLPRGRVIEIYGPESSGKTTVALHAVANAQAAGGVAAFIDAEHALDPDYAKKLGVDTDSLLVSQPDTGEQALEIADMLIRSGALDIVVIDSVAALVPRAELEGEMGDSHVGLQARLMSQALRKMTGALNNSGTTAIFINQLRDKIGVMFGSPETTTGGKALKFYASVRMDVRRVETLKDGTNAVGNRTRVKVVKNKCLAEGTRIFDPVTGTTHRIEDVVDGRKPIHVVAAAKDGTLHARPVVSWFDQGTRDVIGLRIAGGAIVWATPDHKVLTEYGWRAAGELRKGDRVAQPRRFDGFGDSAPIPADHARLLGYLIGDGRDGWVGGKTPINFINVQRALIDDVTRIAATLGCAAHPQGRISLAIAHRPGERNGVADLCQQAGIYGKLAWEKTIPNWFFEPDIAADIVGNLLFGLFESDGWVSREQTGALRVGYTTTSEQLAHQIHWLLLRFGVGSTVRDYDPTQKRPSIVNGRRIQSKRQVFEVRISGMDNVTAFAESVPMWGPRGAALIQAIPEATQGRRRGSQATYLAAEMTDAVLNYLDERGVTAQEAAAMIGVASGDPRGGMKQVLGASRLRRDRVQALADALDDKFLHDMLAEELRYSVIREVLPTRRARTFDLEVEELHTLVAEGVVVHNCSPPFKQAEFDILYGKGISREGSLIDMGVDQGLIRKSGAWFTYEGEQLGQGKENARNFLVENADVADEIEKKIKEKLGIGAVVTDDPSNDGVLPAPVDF
Arbovirus anti: arbovirus infection inhibition | arbovirus infection cell-based antiviral screen | inhibition, % at 10 µM | 200,000 tested, 0.37% active | AID 1251;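 active = inhibition from about 30%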;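 also: bluetongue infection of BSR cells; cell survival read as ATP light after 72 h; 0% = infected wells without compound and 100% = uninfected wells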
Mtb growth: M. tuberculosis H37Rv growth inhibitors, H37Rv strain (AID 1626); M. tuberculosis H37Rv growth inhibition; higher % means a stronger effect; one-dose inhibition, % at 10 µM; IC50 in µM for titrated hits; 220,000 tested, 0.95% active;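 active = confirmed in a dose series; inconclusive = inhibition above 80% but not taken into the dose series; inactive = below 80% or under 30% at every dose of the series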;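 also: bacteria incubated seven days before Alamar blue readout; 0% = bacteria only wells and 100% = bacteria with antibiotic wells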
YopH PTP inh: inhibitors of Yersinia enterocolitica YopH tyrosine phosphatase; fluorescence Ex485/Em525; inhibition, %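 (about 10 µM by stock and volumes)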; 140,000 tested, 0.16% active;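 active = inhibition of 50% or more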;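 also: controls were vehicle for no effect and minimum signal wells for full effect; inactives centre near -20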
Mtb betalactam: beta-lactam sensitization of Mtb H37Rv; inhibition, % at 25 µM; AID 434955; 330,000 tested, 0.27% active; M. tuberculosis H37Rv growth with meropenem, percent inhibition; hits of this screen are not shown here;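 active = about 74% or more and at least 40 points above the plate without the antibiotic, then above 30% in a dose series; inconclusive = first-round hits that could not be retested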;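 also: growth measured after seven days incubation then overnight dye step; 0% = bacteria only wells and 100% = bacteria with antibiotic; twin plates without the antibiotic show which effects depend on it; some results filed as inactive read as strong as hits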
Arbovirus anti repeat: second read-out of Arbovirus anti, no call of its own (marks repeat the call); inhibition, %; measured here: 10K subset replicate screen; many hits read low in the repeat;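 first of two repeat runs on a subset; 0% = infected and 100% = uninfected wells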
* = called active by the depositor; ? = inconclusive; . = not tested or not shown. Some of the compounds tested; the hit share may differ from the screen's.

SMILES	RecA splice inh	Arbovirus anti	Mtb growth	YopH PTP inh	Mtb betalactam	others
CN(CC(=O)N1CCc2ccccc2C1)S(=O)(=O)c1ccc2c(c1)c(=O)n(C)c(=O)n2C	.	-4	-11%	-18	-3	Arbovirus anti repeat=-1
COc1ccc(OC)c(N2C(=O)C(Cl)=C(N3CCOCC3)C2=O)c1	70*	-2	10%	-33	73
Cc1ncc([N+](=O)[O-])n1CC(=O)NCc1ccccc1	-1.9	3	-8%	-44	?
O=C(OCCCN=C1NS(=O)(=O)c2ccccc21)c1ccc(F)cc1	0.5	-1	-6%	-18	-12
Cc1ccc(S(=O)(=O)N2CCN(CC(O)COc3ccccc3)CC2)cc1 (stereo not given)	0.9	.	.	.	-3
CC(=O)NNc1cc(C)nc(NS(=O)(=O)c2ccc(C)cc2)n1	-2.4	.	.	.	-1
NC(=O)C1CCN(C(=O)CC2(CC(=O)O)CCCC2)CC1	-1.0	.	.	.	3
COCCN(C(=O)COC(=O)CCC1CCCC1)c1c(N)n(Cc2ccccc2)c(=O)[nH]c1=O	-1.8	.	.	.	0
Cc1oc(-c2ccccc2F)nc1CS(=O)CC(=O)NCc1ccc(F)cc1 (stereo not given)	-0.6	.	.	.	-1
CCC(=O)Oc1ccc(C(=O)Nc2ccc3c(c2)C(=O)N(C2CCCCC2)C3=O)cc1	4.4	-16	?	0	98
Cn1nc(C(C)(C)C)cc1C(=O)Sc1cccc(Br)c1	43*	.	4%	.	-1
O=C(Cc1ccc(Br)cc1)OCC(=O)c1ccc2c(c1)OCCO2	-1.9	-9	2%	4	51
CCN(CC)C(=O)c1ccc2c(c1)N(Cc1ccccc1)C(=O)CS2=O (stereo not given)	0.2	3	-8%	-23	-5
O=C(CCc1ccc(S(=O)(=O)NC2CCCCC2)cc1)NCc1ccc(Cl)cc1	1.5	0	14%	-22	-6
CCOC(=O)C1=C(C)N(CC(C)C)C(=O)/C1=C\c1cccs1	.	.	5%	.	6
O=C1CCCN1c1cc(Cl)ccc1Cl	1.8	-3	0%	-14	-11
Cc1noc(C)c1C(=O)NCc1ccccc1F	-3.5	-1	5%	.	-4
COc1ccc(NC(=O)/C(C#N)=C/c2ccc[nH]2)c(OC)c1	0.0	.	.	.	-3
CCc1ccc(C(=O)Nc2ccc(S(=O)(=O)Nc3nc(C)cc(C)n3)cc2)o1	-2.3	106*	-1%	-30	6
CC1(C)S[C@@H]2[C@H](NC(=O)COc3ccccc3)C(=O)N2C1C(=O)OCC1CCCCC1 (stereo not given in full)	13	.	7%	.	19

4 structures already listed, ordered by molecular weight, highest first:
SMILES	RecA splice inh	Arbovirus anti	Mtb growth	YopH PTP inh	Mtb betalactam	others
O=C(CCc1ccc(S(=O)(=O)NC2CCCCC2)cc1)NCc1ccc(Cl)cc1	1.5	0	14%	-22	-6
CCc1ccc(C(=O)Nc2ccc(S(=O)(=O)Nc3nc(C)cc(C)n3)cc2)o1	-2.3	106*	-1%	-30	6
Cc1ncc([N+](=O)[O-])n1CC(=O)NCc1ccccc1	-1.9	3	-8%	-44	?
O=C1CCCN1c1cc(Cl)ccc1Cl	1.8	-3	0%	-14	-11

Next records:
SMILES	RecA splice inh	Arbovirus anti	Mtb growth	YopH PTP inh	Mtb betalactam	others
COc1cc(C(=O)Nc2ccc(N(C)C)cc2)cc(OC)c1OC	-2.5	-11	-1%	-48	9	Arbovirus anti repeat=-9
O=C(NCCc1csc(-c2ccccc2)n1)c1ccccc1F	3.2	.	-1%	.	4
Cc1ccc(CN(Cc2ccccc2)C(=S)Nc2ccccc2C)o1	0.2	8	2%	.	-5
O=C(Nc1cccc(F)c1)C1CCCN1S(=O)(=O)c1cccc2cccnc12 (stereo not given)	.	9	-4%	-34	-4
O=C(OCN1C(=O)c2ccccc2C1=O)c1ccccc1	0.0	4	0%	37	1
COCC(C)n1c(C)cc(C(=O)CSc2cc(C)c3ccccc3n2)c1C (stereo not given)	7.5	15	5%	-33	3
CC(Nc1cc(N2CCN(C(=O)C(C)(C)C)CC2)ccc1[N+](=O)[O-])c1ccccc1 (stereo not given)	8.6	-4	2%	-13	4
O=C(COC(=O)C1CCC1)NCCc1ccc(Cl)cc1Cl	0.7	.	.	.	0
Cc1cc(NC(=O)CCC(=O)N(CC(=O)NC2CCCC2)Cc2ccco2)no1	-0.4	4	-8%	-14	-4
COCc1c(C(=O)N/N=C/c2ccc(C)o2)nnn1-c1nonc1N	-3.0	.	.	.	-3
O=C(O)CSCC(=O)NCc1csc2ccc(Cl)cc12	0.6	.	69%	.	-15
O=C(CN1C(=O)NC2(CCCc3ccccc32)C1=O)N1CCN(C(=O)c2ccco2)CC1 (stereo not given)	.	1	-3%	-21	-4
O=C(N/N=C/c1cccc(Br)c1)C1CC(=O)N(c2ccccc2)C1 (stereo not given)	1.1	.	.	.	-3
OCC1CCCN(Cc2ccc(-c3ccccc3)cc2)C1 (stereo not given)	2.2	-12	3%	-40	-6
COc1cc(S(=O)(=O)NC2CCCC2)ccc1-n1cnnn1	-2.2	.	.	.	0
Cc1ccc(S(=O)(=O)/N=C/N(C)C)cc1	-3.6	-2	5%	-26	-10
O=C(c1c(Cl)cccc1Cl)N1CCN(c2ccccn2)CC1	1.4	2	3%	-26	-9
CC1=CC(C)(C)NC(=S)N1c1ccc(C)cc1C	-2.6	-1	-7%	.	-9
COc1ccc(/C=N\NC(=O)COc2ccccc2Cl)cc1Cn1nc(C)cc1C	1.9	-10	-1%	-17	-4
O=C(NCC1CCN(Cc2cccc(Cl)c2)CC1)Nc1ccccc1Cl	1.3	.	.	.	-1
Cc1cc2ccc(C)c(C)c2nc1SCC#N	-0.5	-4	-4%	-24	?
Cc1cc(=O)oc2cc(NC(=O)c3cccc(S(=O)(=O)N(C)C)c3)ccc12	-1.2	.	.	.	3
CCCCc1nnc(NC(=O)CSc2nc(N)cc(=O)[nH]2)s1	2.8	8	-6%	.	-2
CC1(c2ccc3noc(-c4ccc(Cl)cc4)c3c2)OCCO1	5.7	13	7%	-19	-2
CCOC(=O)C1(Cc2ccccc2)CCN(Cc2cccc3c2OCO3)CC1	2.5	9	-1%	.	0
COc1ccc(-c2[nH]ncc2CNCCc2ncccc2C)cc1F	1.0	4	-9%	.	-9
CN(c1ccccc1)S(=O)(=O)c1ccc(Cl)c(C(=O)Nc2ccc(N3CCOCC3)cc2)c1	2.6	-1	0%	.	-9
Cc1ccc(S(=O)(=O)Nc2ccccc2C(=O)NCC2CCCO2)cc1 (stereo not given)	0.5	.	.	.	-5
O=C(c1ccco1)N1CCN(Cc2cc(=O)c(OCc3ccccc3)co2)CC1	-1.4	.	.	.	-7
O=C(Cc1csc(NC(=O)Nc2cccc(Cl)c2)n1)NC1CCCC1	-1.3	.	.	.	-1
COc1ccc(Cc2nnc3c4cnn(C)c4ncn23)cc1	-0.9	-1	-3%	-30	?
COc1ccc(Oc2coc3cc(O)ccc3c2=O)cc1	-1.7	.	.	.	3
COc1ccc([C@H]2[C@H](C(=O)OC(C)(C)C)N3N=Cc4ccccc4C3C23C(=O)c2ccccc2C3=O)cc1OC (stereo not given in full)	4.8	-14	-1%	-9	4
COc1cc(NC(=O)COC(=O)CNC(=O)c2ccc(C)cc2)c(C)cc1[N+](=O)[O-]	0.2	5	0%	-15	3
O=C(C[n+]1cc(Br)cc(Br)c1)c1ccc(-c2ccccc2)cc1	13	.	.	.	-7
Cc1ccc(S(=O)(=O)N[C@@H](C)C(=O)N2CCC(C(=O)N[C@@H](Cc3ccccc3)C(=O)O)CC2)cc1	-1.9	.	.	.	20
CCC(NC(=O)OC(C)(C)C)C(=O)Oc1ccc2c3c(c(=O)oc2c1)CCC3 (stereo not given)	-13	15	1%	-35	1
CCc1cc2c(CN(C)Cc3ccccc3F)cc(=O)oc2cc1O	-103	.	.	.	-2
Cc1ccc(NC(=O)/C=C/c2cccc(C(F)(F)F)c2)cc1	1.4	-2	-5%	-22	50
COc1ccccc1-c1cc(C(=O)NCc2ccc(Cl)cc2)no1	1.3	2	-2%	-35	15

Among those listed so far, 3 contain a nitro group on carbon:
SMILES	RecA splice inh	Arbovirus anti	Mtb growth	YopH PTP inh	Mtb betalactam	others
Cc1ncc([N+](=O)[O-])n1CC(=O)NCc1ccccc1	-1.9	3	-8%	-44	?
CC(Nc1cc(N2CCN(C(=O)C(C)(C)C)CC2)ccc1[N+](=O)[O-])c1ccccc1 (stereo not given)	8.6	-4	2%	-13	4
COc1cc(NC(=O)COC(=O)CNC(=O)c2ccc(C)cc2)c(C)cc1[N+](=O)[O-]	0.2	5	0%	-15	3

The list goes on:
SMILES	RecA splice inh	Arbovirus anti	Mtb growth	YopH PTP inh	Mtb betalactam	others
CC(=O)c1ccc(OCc2cc(=O)n3ccsc3n2)cc1	-7.7	3	-4%	-37	3
Cc1ccc(S(=O)(=O)N2CCN(CC(=O)Nc3ccc4c(c3)CCC4)CC2)cc1C	6.3	-21	8%	-22	-5
CNc1nc(C(=O)O)nc(N2CCOCC2)n1	-1.7	2	-5%	-4	2
Cc1occc1-c1nnc(SCC(=O)N2CCOCC2)n1CCc1ccccc1	0.5	6	-8%	-35	-1
CC(C)c1ccc(NC(=O)CNC(=O)Cn2cnc3ccccc3c2=O)cc1	-0.6	0	4%	.	1
CN(C)S(=O)(=O)c1ccc(Cl)c(NC(=O)COC(=O)CCSc2ccccc2)c1	1.0	4	0%	-11	3
O=c1c2c(nc3c(-c4ccc(Cl)cc4)c[nH]n13)CCCC2	-1.7	-16	?	-9	94
O=C(NCc1ccccc1)c1cncc(Br)c1	1.8	1	5%	-37	2
CCC1=NN(C(=O)CCc2ccccc2)C(O)(C(F)(F)F)C1 (stereo not given)	1.7	-1	-5%	6	2
COc1cc2ccccc2cc1C(=O)N/N=C/c1ccc2c(c1)OCO2	-0.1	.	.	.	9
CCn1c(=O)cc(SCC(=O)NCc2ccc(C)o2)c2ccccc21	1.3	-7	2%	-27	-1
O=C(NCCc1ccccc1)/C(=N\O)c1ccccc1	1.5	-4	.	8	-1
O=C(/C=C/c1ccccc1[N+](=O)[O-])N1CCN(c2ccccc2F)CC1	1.5	9	5%	.	-2
CC1=CC(c2ccccc2)n2nnnc2N1 (stereo not given)	-0.7	.	2%	.	-7
c1ccc(C2CNCCc3ccccc32)cc1 (stereo not given)	-0.5	.	.	.	-4
O=C(NCCc1c[nH]c2ccccc12)c1ccc(F)cc1F	1.1	.	.	.	4
CC(=O)Nc1ccccc1Sc1ccccc1	1.7	8	-2%	-12	-3
C=CCOC(=O)c1cn(CC)c2nc(C)ccc2c1=O	-0.2	-1	-8%	.	-11
O=C(Nc1ccc(S(=O)(=O)Nc2ncccn2)cc1)C1CC(=O)N(c2ccc(Cl)cc2)C1 (stereo not given)	1.8	.	.	.	-4
O=C(CN1CCc2ccccc21)NC(=O)NCc1ccco1	-0.9	14	-7%	-45	0
Cc1cccc(-n2c(SCC(=O)NCc3ccco3)nnc2-c2ccco2)c1	4.5	-1	3%	-44	-1
COc1ccccc1N1CCN(C(=O)c2cc(=O)c3c(C)cc(C)cc3o2)CC1	1.7	.	.	.	-6
Cc1nonc1C(=O)N/N=C/c1cc2c(cc1Br)OCO2	-4.6	2	3%	.	5
CCOC(=O)c1csc(NC(=O)CCSc2ccccc2)n1	-0.9	5	-2%	.	-2
O=C(Cc1ccccc1)N1CCC(O)(c2cccnc2)CC1	0.0	4	1%	1	2
O=c1c2cc(N3CCOCC3)ccc2[nH]c(=S)n1Cc1ccc(Cl)cc1	-4.6	-6	4%	5	5
COc1cc(C)c(NC(=S)Nc2cccc(Cl)c2)cc1OC	0.2	17	5%	-24	1
NS(=O)(=O)c1ccc(NNC(=O)c2sccc2Cl)cc1	-1.8	.	9%	.	2
Cc1cc(C(=O)N/N=C/c2ccc3ccccc3c2)n[nH]1	-1.5	.	.	.	1
CC(=O)N1CCN(Cc2nc3cc(NC(=O)Cn4nc(C)c5ccccc5c4=O)ccc3n2C)CC1	-1.4	-3	.	-2	1
CC(=O)c1sc(NS(=O)(=O)c2ccc(C)cc2)nc1-c1ccccc1	2.6	.	.	.	10
COc1ccccc1C(=O)Nc1cccc(C(=O)N2CCOCC2)c1	-1.7	.	.	.	-6
Brc1cccc(-c2nnc3n2CCC3)c1	-0.7	10	-11%	-41	8
CC(=O)c1ccc(NC(=O)c2cnn3ccccc23)cc1	-5.3	1	1%	-16	-8
COc1cc(S(=O)(=O)N(Cc2ccccc2)CC2CCCO2)ccc1-n1cnnn1 (stereo not given)	0.8	-3	-3%	.	-3
CC(=O)c1cccc(NC(=S)NC2CC2)c1	-1.6	-5	-12%	-39	-7
CCCOc1ccc(C(=O)c2nc3c(n2O)CCCC3)cc1	-1.9	8	-14%	-1	67
N=c1c2c(ncn1Cc1ccco1)Oc1ccc3ccccc3c1C2c1ccccc1 (stereo not given)	30*	-32	21%	-46	78
Cc1ccccc1-n1nnnc1SCC(=O)c1c(N)n(C)c(=O)n(C)c1=O	-3.2	.	-8%	.	2

Screens deposited in PubChem BioAssay by several laboratories.
